UUG fidelity – modulators of start codon recognition fidelity in yeast. S. cerevisiae UUG-firefly luciferase reporter, luminescence/redox ratio. activity score, % at 18.7 µM. hit rate 0.13% among 350,000. AID 602363;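 active means replicate mean at a twofold rise or more, about +100% in these data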;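 further: firefly luciferase made from a UUG start codon reports start codon fidelity; reporter light over untreated wells divided by growth signal over untreated wells; some hits fall short of that in this replicate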
HIV Env fusion – inhibitors of HIV Env-mediated cell fusion | HeLa-JRFL Env/CEM21 cell fusion, luciferase | inhibition, % at 12.3 µM | hit rate 1.1% among 360,000;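 active means mean replicate inhibition score of at least 50 and every replicate individually at or above 50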;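 further: 0% = plate neutral controls and 100% = maraviroc near 300 nM; one replicate is shown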
* marks the source's active call; other numbers are inactive results; [ ] = another dose, or the depositor's remark.

smiles	UUG fidelity	HIV Env fusion
Cc1ccc(S(=O)(=O)N(C)C[C@@H]2OCCCC[C@H](C)Oc3ccc(NC(=O)Nc4c(C)noc4C)cc3C(=O)N([C@H](C)CO)C[C@H]2C)cc1	-6.6	-4.9[16.7 µM]
CC(C)NC(=O)N[C@H]1CC[C@H](CC(=O)N2CCCCC2)O[C@@H]1CO	-9.3	23.5[16.7 µM]
Cc1ccc(S(=O)(=O)N(C)C[C@@H]2OCCCC[C@@H](C)Oc3ccc(NS(=O)(=O)c4cccs4)cc3C(=O)N([C@H](C)CO)C[C@H]2C)cc1	-5.4	6.6[16.7 µM]
C[C@H](CO)N1C[C@H](C)[C@H](CN(C)Cc2ccccc2)Oc2ncc(C3=CCCC3)cc2C1=O	-5.4	-2.9[16.7 µM]
C[C@@H]1CN([C@@H](C)CO)C(=O)Cc2cc(NC(=O)Cc3ccccc3)ccc2O[C@@H]1CN(C)C(=O)Nc1ccc2c(c1)OCO2	4.7	-7.1[16.7 µM]
C[C@@H]1CN([C@H](C)CO)C(=O)c2cc(C#CCN(C)C)cnc2O[C@H]1CN(C)Cc1ccncc1	-11.2	-11.3[16.7 µM]
C[C@@H]1CN([C@@H](C)CO)C(=O)c2cccc(NS(=O)(=O)c3cn(C)cn3)c2O[C@H]1CN(C)Cc1ccc(C(=O)O)cc1	-15.5	14.2[16.7 µM]
COc1ccc(S(=O)(=O)N(C)C[C@@H]2Oc3ccc(NS(=O)(=O)c4ccccc4)cc3CC(=O)N([C@@H](C)CO)C[C@H]2C)cc1	0.2	1.2[16.7 µM]
Cc1ccc(-c2ccc3c(c2)O[C@H](CN(C)C(=O)Nc2ccccc2)[C@H](C)CN([C@@H](C)CO)S3(=O)=O)cc1	0.5	-32.5[16.7 µM]
CC(=O)N(C)C[C@@H]1Oc2cc(C#CCN(C)C)ccc2S(=O)(=O)N([C@H](C)CO)C[C@H]1C	-15.7	4.3[16.7 µM]
C[C@@H]1CN([C@@H](C)CO)C(=O)c2cc(C#CCc3ccccc3)cnc2O[C@H]1CN(C)Cc1cccnc1	2.2	10.9[16.7 µM]
CC(C)CC#Cc1cnc2c(c1)C(=O)N([C@@H](C)CO)C[C@H](C)[C@H](CN(C)Cc1ccc(C(=O)O)cc1)O2	8.2	-8.3[16.7 µM]
O=C(C[C@H]1C[C@H]2c3cc(NC(=O)Nc4ccccc4)ccc3O[C@H]2[C@@H](CO)O1)NCc1cccc(F)c1	-14.6	2.5[16.7 µM]
O=C(C[C@H]1C[C@H]2c3cc(NS(=O)(=O)c4ccc(F)cc4)ccc3O[C@H]2[C@H](CO)O1)N1CCOCC1	-7.7	9.3[16.7 µM]
CCC(=O)Nc1ccc2c(c1)C(=O)N(C)[C@H]1CC[C@H](CC(=O)NCC3CCCCC3)O[C@H]1CO2	5.7	5.1[16.7 µM]
COCC(=O)N1C[C@H](C)[C@H](OC)CN(C)C(=O)c2ccc(NC(=O)Nc3ccccc3)cc2OC[C@@H]1C	-1.2	3.0[16.7 µM]
C/C=C/c1ccc2c(c1)O[C@@H](CN(C)CC1CCCCC1)[C@@H](C)CN([C@@H](C)CO)S2(=O)=O	0.0	10.6[16.7 µM]
Cc1ccc(S(=O)(=O)N(C)C[C@H]2OCCCC[C@H](C)Oc3ccc(N(C)C)cc3C(=O)N([C@@H](C)CO)C[C@@H]2C)cc1	73.4	-16.3[16.7 µM]
COCCNC(=O)C[C@@H]1C[C@H]2c3cc(NC(=O)Nc4ccccc4F)ccc3O[C@H]2[C@@H](CO)O1	-7.0	9.1[16.7 µM]
COc1ccccc1CNC(=O)C[C@@H]1CC[C@@H](NC(C)=O)[C@H](CO)O1	-1.0	26.3[16.7 µM]
Cc1ccc(S(=O)(=O)N[C@@H]2CC[C@@H](CC(=O)NCCN3CCCCC3)O[C@@H]2CO)cc1	-12.1	-12.7[16.7 µM]
COc1ccc(S(=O)(=O)Nc2ccc3c(c2)C(=O)N([C@H](C)CO)C[C@@H](C)[C@@H](CN(C)S(=O)(=O)c2cccs2)OCCCC[C@H](C)O3)cc1	17.8	-12.5[16.7 µM]
Cc1ccccc1-c1ccc2c(c1)O[C@H](CN(C)C(=O)Nc1ccccc1)[C@@H](C)CN([C@H](C)CO)S2(=O)=O	-15.3	42.7[16.7 µM]
COCC(=O)Nc1ccc2c(c1)[C@@H]1C[C@@H](CC(=O)NCc3ccccn3)O[C@H](CO)[C@@H]1O2	1.0	0.2[16.7 µM]
COc1ccc(NC(=O)N(C)C[C@H]2Oc3ccc(NS(=O)(=O)c4cn(C)cn4)cc3CC(=O)N([C@@H](C)CO)C[C@H]2C)cc1	0.9	-12.2[16.7 µM]

Sorted by SMILES length (falling): some entries from above.
smiles	UUG fidelity	HIV Env fusion
O=C(C[C@H]1C[C@H]2c3cc(NC(=O)Nc4ccccc4)ccc3O[C@H]2[C@@H](CO)O1)NCc1cccc(F)c1	-14.6	2.5[16.7 µM]
COCC(=O)N1C[C@H](C)[C@H](OC)CN(C)C(=O)c2ccc(NC(=O)Nc3ccccc3)cc2OC[C@@H]1C	-1.2	3.0[16.7 µM]
COc1ccccc1CNC(=O)C[C@@H]1CC[C@@H](NC(C)=O)[C@H](CO)O1	-1.0	26.3[16.7 µM]

Further compounds:
smiles	UUG fidelity	HIV Env fusion
O=C(Nc1ccccc1F)N[C@H]1CC[C@H](CCNS(=O)(=O)c2ccc(Cl)cc2)O[C@H]1CO	-0.3	8.4[16.7 µM]
COc1ccc(S(=O)(=O)Nc2ccc3c(c2)C(=O)N([C@H](C)CO)C[C@@H](C)[C@H](CN(C)S(=O)(=O)c2c(C)noc2C)OCCCC[C@H](C)O3)cc1	-0.3	-13.9[16.7 µM]
COc1ccc(S(=O)(=O)N[C@H]2C=C[C@H](CC(=O)N3CCc4ccccc4C3)O[C@H]2CO)cc1	9.0	3.8[16.7 µM]
C[C@@H]1CN([C@@H](C)CO)S(=O)(=O)c2ccc(-c3cccnc3)cc2O[C@H]1CN(C)C(=O)CN(C)C	-10.2	-2.0[16.7 µM]
CO[C@@H]1CN(C)C(=O)c2cc(NC(=O)NC(C)C)ccc2OC[C@H](C)N(C(=O)CC2CC2)C[C@H]1C	3.6	6.6[16.7 µM]
CC(C)NC(=O)Nc1ccc2c(c1)C(=O)N([C@@H](C)CO)C[C@H](C)[C@H](CN(C)S(=O)(=O)c1ccc(Cl)cc1)OCCCC[C@H](C)O2	4.2	-19.1[16.7 µM]
C[C@H](NC(=O)C[C@H]1CC[C@@H](NC(=O)C2CC2)[C@@H](CO)O1)c1ccccc1	-3.7	4.4[16.7 µM]
O=C(C[C@H]1CC[C@@H](NC(=O)c2ccccc2)[C@H](CO)O1)NCCc1ccncc1	-4.6	-9.2[16.7 µM]
CNC[C@H]1Oc2cc(C#CC(C)(C)O)ccc2S(=O)(=O)N([C@H](C)CO)C[C@H]1C	-18.2	-17.3[16.7 µM]
COc1ccc(/C=C2\SC(=S)N(CCCC(=O)NC34CC5CC(CC(O)(C5)C3)C4)C2=O)cc1	-57.0	37.8[16.7 µM]
O=C(C[C@H]1CC[C@@H](NC(=O)c2ccc3c(c2)OCO3)[C@H](CO)O1)NC1Cc2ccccc2C1	-0.3	-15.4[16.7 µM]
C[C@H]1CN([C@@H](C)CO)C(=O)c2cc(-c3ccc(C(=O)N(C)C)cc3)cnc2O[C@H]1CN(C)C(=O)c1cccnc1	-5.1	11.5[16.7 µM]
COc1cccc(CNC(=O)C[C@@H]2C=C[C@H](NC(C)=O)[C@@H](CO)O2)c1	-15.0	5.4[16.7 µM]
CCC(=O)Nc1ccc2c(c1)OC[C@H](C)N(C(=O)C1CC1)C[C@@H](C)[C@H](OC)CN(C)C2=O	-3.3	-1.4[16.7 µM]
CC(C)c1cn(CC[C@@H]2CC[C@@H](NS(=O)(=O)Cc3ccccc3)[C@H](CO)O2)nn1	-2.2	5.1[16.7 µM]
C[C@H]1CN([C@@H](C)CO)C(=O)c2cc(NC(=O)Nc3ccc(C(F)(F)F)cc3)ccc2O[C@H]1CN(C)Cc1ccc(C(F)(F)F)cc1	-4.3	-4.3[16.7 µM]
C[C@@H]1CCCCO[C@@H](CN(C)Cc2ccncc2)[C@H](C)CN([C@@H](C)CO)C(=O)c2cc(NS(=O)(=O)c3ccc(Cl)cc3)ccc2O1	13.9	4.6[16.7 µM]
C[C@@H]1CCCCO[C@H](CN(C)C(=O)Nc2ccc(C(F)(F)F)cc2)[C@H](C)CN([C@@H](C)CO)C(=O)c2cc(NC(=O)Nc3ccc(C(F)(F)F)cc3)ccc2O1	-18.0	16.8[16.7 µM]
O=C(C[C@@H]1CC[C@@H](NC(=O)NC2CCCCC2)[C@@H](CO)O1)NCc1ccccc1	-11.9	2.6[16.7 µM]
COc1ccccc1-c1cn(CC[C@H]2CC[C@@H](NS(=O)(=O)c3ccccc3C)[C@H](CO)O2)nn1	-9.9	-4.8[16.7 µM]
COc1ccc(NC(=O)Nc2ccc3c(c2)C(=O)N([C@@H](C)CO)C[C@H](C)[C@@H](CN(C)C(=O)Nc2ccc4c(c2)OCO4)O3)cc1	8.8	-6.5[16.7 µM]
CC(C)NC(=O)N(C)C[C@H]1Oc2cc(C#Cc3ccccn3)ccc2S(=O)(=O)N([C@H](C)CO)C[C@H]1C	14.7	-0.6[16.7 µM]
C[C@@H]1CN([C@@H](C)CO)C(=O)c2cccc(NS(C)(=O)=O)c2O[C@H]1CN(C)Cc1ccc(C(F)(F)F)cc1	13.1	15.7[16.7 µM]
COc1ccc(S(=O)(=O)Nc2ccc3c(c2)C(=O)N([C@@H](C)CO)C[C@@H](C)[C@H](CN(C)S(=O)(=O)c2ccc(C)cc2)OCCCC[C@H](C)O3)cc1	5.0	8.1[16.7 µM]
CCCN(C)C[C@@H]1OCCCC[C@H](C)Oc2ccc(NC(=O)Nc3ccc(C(F)(F)F)cc3)cc2C(=O)N([C@H](C)CO)C[C@@H]1C	-3.4	-7.6[16.7 µM]
C[C@H](NC(=O)C[C@H]1C[C@@H]2c3cc(NC(=O)NC4CCCC4)ccc3O[C@@H]2[C@@H](CO)O1)c1ccccc1	-4.0	-7.1[16.7 µM]
COc1ccc(CN(C)C[C@@H]2OCCCC[C@@H](C)Oc3ccc(NC(=O)c4ccncc4)cc3C(=O)N([C@H](C)CO)C[C@H]2C)cc1	-1.3	-14.7[16.7 µM]
CNC[C@H]1Oc2ccc(NC(=O)CCN3CCOCC3)cc2CC(=O)N([C@@H](C)CO)C[C@@H]1C	-9.0	-6.2[16.7 µM]
C[C@@H]1CCCCO[C@@H](CN(C)S(=O)(=O)c2ccccc2)[C@H](C)CN([C@H](C)CO)C(=O)c2cc(NC(=O)Nc3ccccc3)ccc2O1	-9.3	5.7[16.7 µM]
C[C@@H]1CN([C@@H](C)CO)C(=O)Cc2cc(NC(=O)CCCCCC(=O)Nc3ccccc3N)ccc2O[C@H]1CN(C)Cc1ccc(Cl)c(Cl)c1	3.7	11.5[16.7 µM]
Cc1noc(C)c1NC(=O)N(C)C[C@H]1Oc2ncc(C#CC(C)C)cc2C(=O)N([C@H](C)CO)C[C@H]1C	15.8	-12.4[16.7 µM]
C[C@@H]1CCCCO[C@H](CN(C)C(=O)C2CCCCC2)[C@@H](C)CN([C@H](C)CO)C(=O)c2cc(NS(C)(=O)=O)ccc2O1	9.0	-33.3[16.7 µM]
CO[C@@H]1CN(C)C(=O)c2ccc(NC(=O)C3CCCCC3)cc2OC[C@H](C)N(C(=O)c2ccccc2)C[C@H]1C	4.7	-3.0[16.7 µM]
CC(C)NC(=O)Nc1ccc2c(c1)C(=O)N([C@H](C)CO)C[C@H](C)[C@@H](CN(C)Cc1ccc(C(=O)O)cc1)O2	2.0	-1.3[16.7 µM]
COc1cc2c(cc1O)C(c1cccs1)N(Cc1sc3ccccc3c1Cl)CC2 (stereo unspecified)	-10.6	-10.5[16.7 µM]
C[C@@H]1CN([C@@H](C)CO)S(=O)(=O)c2ccc(C#CC3CC3)cc2O[C@@H]1CN(C)C(=O)C1CC1	15.7	0.7[16.7 µM]
O=C(Cc1ccccn1)N[C@@H]1CC[C@H](CCn2cc(-c3cccnc3)nn2)O[C@@H]1CO	-2.5	9.5[16.7 µM]
CC(C)C(=O)Nc1ccc2c(c1)C(=O)N(C)[C@@H]1CC[C@H](CC(=O)NCc3ccc(F)cc3)O[C@@H]1CO2	13.6	-2.4[16.7 µM]
O=C(C[C@H]1C=C[C@@H](NS(=O)(=O)c2ccc(F)cc2)[C@H](CO)O1)N1CCc2ccccc2C1	-7.5	15.3[16.7 µM]
CCCC#Cc1ccc([C@@H]2[C@@H](CO)N(C(=O)C3CCCCC3)[C@H]2C#N)cc1	3.0	8.6[16.7 µM]
O=C(Nc1ccc2c(c1)OCO2)N[C@@H]1CC[C@H](CCNC(=O)C2CCCC2)O[C@@H]1CO	-6.1	-7.5[16.7 µM]
C/C=C/c1cnc2c(c1)C(=O)N([C@H](C)CO)C[C@H](C)[C@H](CN(C)C(=O)Nc1c(C)noc1C)O2	0.2	-6.2[16.7 µM]
CC(=O)N(C)C[C@@H]1Oc2ncc(C#C[C@@H](C)O)cc2C(=O)N([C@H](C)CO)C[C@@H]1C	8.8	-13.2[16.7 µM]
C[C@H](CO)N1C[C@H](C)[C@H](CN(C)C(=O)C2CCCCC2)Oc2ncc(-c3cccnc3)cc2C1=O	4.7	-14.3[16.7 µM]
C[C@H]1CN([C@@H](C)CO)C(=O)c2cccc(NC(=O)Nc3ccc4c(c3)OCO4)c2O[C@H]1CN(C)C(=O)Nc1cccc2ccccc12	2.0	-36.0[16.7 µM]
CCCN1C[C@H](C)[C@@H](OC)CN(C)C(=O)c2cc(NC(=O)c3ccccc3F)ccc2OC[C@H]1C	1.7	-20.0[16.7 µM]

These rows are one share of the data. The share of hits here may be higher or lower than overall.
